Measles inh: inhibitors of measles virus growth in infected cells; infected Vero cells, GFP fluorescence, 64 h; hits give low values; z-score (test concentration not listed); hit rate 0.1% among 33,000; AID 745;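 active = z-score under -3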;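 note: score is relative to mean and SD of the compound wells of a plate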
An asterisk follows results filed as active. An excerpt, so the mix of outcomes need not match the whole.

Compound	Measles inh
COC(=O)c1ccccc1NC1=CC(=NS(=O)(=O)c2ccc(Br)cc2)c2ccccc2C1=O	0.57
Cc1ccc(CNC(=O)CCCn2c(=O)c3sccc3n(Cc3ccccc3Cl)c2=O)cc1	-0.6
CCC(=O)Oc1ccc(C(=O)Nc2ccc(O)cc2C(=O)O)cc1	-0.19
CCN(c1ccccc1)S(=O)(=O)c1ccc2[nH]cc(C(=O)NCCc3ccccc3)c(=O)c2c1	-0.41
CCc1ccc(-n2nc3ccc(NC(=O)c4ccc(OC)c(Br)c4)cc3n2)cc1	-1.2
CCOC(=O)c1ccc(N2C(=O)C3C(c4ccccc4F)OC4(C(=O)c5ccccc5C4=O)C3C2=O)cc1 (centres undefined)	2.5
Cc1cccc(NC(=O)CCS(=O)(=O)c2cc(Br)cc3c2N(C(=O)C2CC2)CC3)c1C	1.3
COc1ccccc1CNS(=O)(=O)c1ccc(F)c(C(=O)Nc2cc(C)ccc2C)c1	-0.5
CCN(CC)CC(=O)Nc1ccc(C)cc1C	0.37
COc1ccc(NC(=O)CCS(=O)(=O)c2ccc(Cl)cc2)cc1	1.4

Next part.
Compound	Measles inh
Cc1cccc(-n2nc3c(c2NC(=O)c2cc(Cl)ccc2[N+](=O)[O-])CSC3)c1C	-2.4
CC1=C(C(=O)OCC(C)C)C(c2cccc(Oc3ccccc3)c2)NC(=O)N1 (centres undefined)	-1.4
C#CCSc1nc2sc3c(c2c(=O)n1CC(=C)C)CCC3	-0.59
Cc1ccccc1OCC(=O)Nc1ccc2oc(-c3ccc(F)cc3)nc2c1	-0.23
CCOc1ccc(C2C(C(=O)OCCOC)=C(C)N=C3SCCC(=O)N32)cc1 (centres undefined)	-0.33
COCCCNC(=O)c1ccc2c(c1)N(Cc1ccccc1)C(=O)c1ccccc1S2	1.5
COc1ccccc1NC(=O)CSCc1nc2ccccc2c(=O)n1-c1ccccc1Cl	-1.6
O=[N+]([O-])c1ccc2nonc2c1Nc1ccccc1-c1ccccc1	-1.3
COc1ccc(-c2csc(N)n2)cc1[N+](=O)[O-]	0.29
O=C(CSc1nc2ccccc2c(=O)n1Cc1ccco1)NC1CCCCC1	-0.09

Continued.
Compound	Measles inh
CCOC(=O)c1nn2c(C(F)(F)F)cc(-c3ccc(Br)cc3)nc2c1Cl	0.57
Cc1ccc(C)c(NC(=O)C(CC(=O)O)Cc2ccccc2)c1 (centres undefined)	0.99
COC(=O)C1C(=O)C2=C(CC1C)NC(C)=C(C(=O)OC(C)C)C2c1ccccc1OC(C)C (centres undefined)	-0.39
Cc1nn(Cc2ccc(Cl)cc2)c(C)c1NC(=O)c1cc(-c2ccc(Br)cc2)on1	1.9
COC(=O)c1sc2nc3c(c(-c4cccs4)c2c1N)CCCC3	-0.59
Cc1ccc(-c2nc3ncccc3o2)cc1NC(=O)c1ccc([N+](=O)[O-])o1	-0.96
Cc1cc(C)c2c(N)c(S(=O)c3ccccc3)sc2n1 (centres undefined)	-0.73
CCOc1ccccc1Nc1nc(-c2c(C)nc3cc(C)ccn23)cs1	-0.24
COC(=O)c1ccc(C(=O)OC)c(NC(=O)c2c(OC)cccc2OC)c1	-0.61
O=C(Nc1sc2c(c1C(=O)Nc1ccc(Cl)cc1)CCCCC2)c1cccs1	1.3

Among those listed so far, five have bromine:
Compound	Measles inh
COC(=O)c1ccccc1NC1=CC(=NS(=O)(=O)c2ccc(Br)cc2)c2ccccc2C1=O	0.57
CCc1ccc(-n2nc3ccc(NC(=O)c4ccc(OC)c(Br)c4)cc3n2)cc1	-1.2
Cc1cccc(NC(=O)CCS(=O)(=O)c2cc(Br)cc3c2N(C(=O)C2CC2)CC3)c1C	1.3
CCOC(=O)c1nn2c(C(F)(F)F)cc(-c3ccc(Br)cc3)nc2c1Cl	0.57
Cc1nn(Cc2ccc(Cl)cc2)c(C)c1NC(=O)c1cc(-c2ccc(Br)cc2)on1	1.9

Continued.
Compound	Measles inh
Cc1ccc(-n2c(SCC(=O)Nc3ccccc3F)nc3c([nH]c4ccccc43)c2=O)cc1	1.7
CCc1ccc(C(=O)CC2(O)C(=O)N(CCc3ccccc3)c3ccc(Cl)cc32)cc1 (centres undefined)	-0.2
O=C(NCC1CCCO1)C1CC(=O)N(CCc2ccccc2)C1 (centres undefined)	0.6
O=C(Nc1nc(-c2nc3ccccc3s2)cs1)c1ccc(S(=O)(=O)N2CCCCCC2)cc1	0.67
O=C(NCc1ccc(Cl)cc1)C(=O)Nc1ccccc1Br	-2
Cc1ccc(-n2c(COc3cccc(C)c3)n[nH]c2=S)cc1	1.5
COc1ccc(NC(=O)CCS(=O)(=O)c2cc(Br)cc3c2N(C(C)=O)CC3)cc1	-0.82
CCOC(=O)C(NC(C)=O)C(O)c1cccc(N)c1 (centres undefined)	0.37
COc1ccc(N=Cc2cn(-c3ccccc3)nc2-c2cccs2)cc1	-1.4
O=C(CCNS(=O)(=O)c1cccs1)Nc1ccc(Cl)cc1	-0.65

Further compounds:
Compound	Measles inh
CCC(=O)Nc1ccc(S(=O)(=O)Nc2ccc(F)cc2)cc1	0.52
CCOc1nc(Nc2ccc(Cl)cc2)nc(NC2CCCCC2)n1	-1
O=C(CSc1nc2ccccc2[nH]1)Nc1ccccc1[N+](=O)[O-]	-0.33
Cc1nc2c(C(=O)NCCC(C)C)cnn2c(C)c1Cc1ccccc1Cl	-0.85
O=C(CSc1nc2ccsc2c(=O)n1Cc1ccc2c(c1)OCO2)OCc1ccccc1	-0.52
C=CCSc1nc(-c2ccccc2)cc(-c2cccs2)c1C#N	-0.39
Cc1oc2c(CN(C)C)c(O)ccc2c(=O)c1-c1ccc2c(c1)OCCO2	0.85
Nc1c(C(=O)Nc2cnc3ccccc3c2)sc2nc(-c3ccccc3)cc(C(F)(F)F)c12	0.53
COc1ccccc1N1CCN(c2ccc(N3C(=O)C4CCC(C)CC4C3=O)cc2[N+](=O)[O-])CC1 (centres undefined)	-0.08
CCOc1ccc(S(=O)(=O)NCc2ccccc2)c2cccnc12	-1

More records:
Compound	Measles inh
CC1=C(C(=O)Nc2ccc(F)cc2)C(c2cccc(Cl)c2)C2=C(CC(c3ccccc3)CC2=O)N1 (centres undefined)	0.11
Cc1ccc(-n2ncc3c(=O)[nH]c(SCC(=O)Nc4ccccc4C(F)(F)F)nc32)cc1	-0.32
COC(=O)c1ccc2c(=O)n(CCN3CCOCC3)c(SCc3ccc(OC(F)(F)F)cc3)nc2c1	-0.06
Cc1ccc(-n2c(-c3cccc([N+](=O)[O-])c3)n[nH]c2=S)cc1C	-0.21
N#Cc1cnc(Nc2nc3ccccc3s2)nc1-c1ccc(Cl)cc1	0.13
COc1cc(NC(=O)c2ccc(S(=O)(=O)N(C)C)cc2)cc(OC)c1OC	-0.68
Cc1ccc2c(c1)C(=O)c1cc3ccccc3nc1-2	-0.08
Cc1ccc(C2Nc3ccc(C(=O)O)cc3C3C=CCC32)cc1 (centres undefined)	-0.26
COc1ccc(OC)c(C2C(C(=O)c3ccco3)=C(O)C(=O)N2CC2CCCO2)c1 (centres undefined)	1.2
O=c1nc2n(-c3cccc(Cl)c3)c3cccc(Cl)c3cc-2c(=O)[nH]1	2

(next part)
Compound	Measles inh
Cc1ccc(-c2nc(-c3cc4ccccc4oc3=O)sc2C)cc1	-0.18
O=C(O)c1cccc(NS(=O)(=O)c2cc(C(=O)Nc3ccccc3)ccc2Br)c1	0.05
CC1=C(C(=O)N2CCOCC2)C(c2ccc([N+](=O)[O-])cc2)n2c(nc3ccccc32)N1 (centres undefined)	1.3
COc1ccc(N2C(=O)C3C4C=CC(C4=C(c4ccccc4)c4ccccc4)C3C2=O)cc1 (centres undefined)	-0.15
CCC(CC)C(=O)Oc1c(S(=O)(=O)c2ccc(C)cc2)c(C)nn1-c1ccccc1	0.12
O=C1OC(=NC2CCCCC2)c2cccc3cccc1c23	0.81
CC1(CC(=O)c2ccc(Br)cc2)C(=O)OC(c2ccc(Cl)cc2)C(C)(C)C1=O (centres undefined)	-1.4
COc1cc(NC(=O)c2c(-c3ccccc3Cl)noc2C)c(OC)cc1Cl	-0.53
COc1ccc(Cl)cc1NC(=O)c1noc2c1CCCC2	-0.89
C=CCc1c(C)c2cc3c(-c4ccccc4)coc3cc2oc1=O	-0.24

(list continues)
Compound	Measles inh
COc1ccc(-n2nc(C(=O)Nc3ccc(C(F)(F)F)cc3)c3c4ccccc4n(C)c3c2=O)cc1	0.88
Cc1ccc2cc3cc(C(=O)Nc4cccc(C(F)(F)F)c4)oc3nc2c1	0.26
O=C(CSc1nc2ccccc2n1S(=O)(=O)c1ccccc1)Nc1ccc([N+](=O)[O-])cc1Cl	0.89
O=c1[nH]cnc2ccccc12	0.07
O=C(c1ccccc1)c1ccc(Cl)cc1N=Cc1cc([N+](=O)[O-])ccc1O	-0.38
C=CCn1c(SCc2ccc3nonc3c2)nnc1-c1ccco1	-0.03
O=[N+]([O-])c1ccc(Cc2noc(-c3ccc([N+](=O)[O-])cc3)n2)cc1	-0.59
CC(=O)c1cccc(NC(=O)c2ccc(N3CC4CC(C3)c3cccc(=O)n3C4)c(NC(=O)c3ccc(F)cc3)c2)c1 (centres undefined)	0.65
CC1=C(C(=O)OCCc2ccccc2)C(c2cc([N+](=O)[O-])ccc2Cl)CC(=O)N1 (centres undefined)	-0.03
COc1ccc(Cl)cc1C(=O)N1CCC(Cc2ccccc2)CC1	-0.69

Next part
Compound	Measles inh
FC(F)(F)COc1nc(NCCOC23CC4CC(CC(C4)C2)C3)nc(OCC(F)(F)F)n1	-0.4
O=C(CCC(=O)OCC(=O)c1ccc(Br)cc1)Nc1ccccc1Cl	0.58
Cc1ccc(-n2nc(C(=O)N3CCOCC3)c3c4ccccc4n(C)c3c2=O)cc1	1.6
CC(C)C(NC(=O)C1CCCCC1)C(=O)Nc1ccc2c(c1)OCCO2 (centres undefined)	1.7
O=C1CSC(c2cc3c(cc2[N+](=O)[O-])OCO3)N1c1ccccc1F (centres undefined)	-0.65
FC(F)Oc1ccc(C2=CC(c3ccccc3OC(F)F)n3ncnc3N2)cc1 (centres undefined)	-0.14
COc1cccc(CSCC(=O)NC2CCCCC2C)c1OC (centres undefined)	-0.04
COc1ccc2cc(C(=O)Nc3ccccc3)c(=Nc3ccc(F)cc3)oc2c1	-1.1
C=CCNc1nc2c(c(=O)[nH]c(=O)n2C)n1C	-1.1
COC(=O)C1=C(C(=O)OC)SC(=C2C(=S)C(C)(C)N(C(=O)c3ccc(Br)cc3)c3c(OC)cccc32)S1	-0.29

More results follow.
Compound	Measles inh
Cn1c2ccc(Br)cc2c2nc3ccccc3nc21	-0.04
COc1ccc([N+](=O)[O-])cc1CSc1nc2ccc(NC(=O)c3ccccc3C(=O)N3CC(C)OC(C)C3)cc2s1 (centres undefined)	-0.52
CCS(=O)(=O)Nc1cccc(C2=NN(S(=O)(=O)CC)C(c3ccccc3)C2)c1 (centres undefined)	1.6
C=CCc1ccccc1Oc1cc(F)nc(N)n1	-0.41
O=C(Cc1ccccc1)OCCN1C(=O)c2cccc3c(N4CCCCC4)ccc(c23)C1=O	1.9
COc1ccc(OC)c(C2NC(c3cc(OC)ccc3OC)C(C)C(C)(O)C2C)c1 (centres undefined)	0.18
COc1ccc(-n2c(=O)c3ccccc3n(CC(=O)Nc3cccc(OC)c3)c2=O)cc1	-0.46
CC(=O)N1CC(C)OC1c1ccccc1 (centres undefined)	1.2
O=C(O)c1ccc2c(=O)n(-c3ccc(F)cc3)c(=O)[nH]c2c1	-1.3
CC(C)CCNC(=O)C1CCN(S(=O)(=O)N2CCC(C)CC2)CC1	2

An excerpt from above in order of heavy-atom count, falling.
Compound	Measles inh
COc1ccc([N+](=O)[O-])cc1CSc1nc2ccc(NC(=O)c3ccccc3C(=O)N3CC(C)OC(C)C3)cc2s1 (centres undefined)	-0.52
COc1ccc(-n2c(=O)c3ccccc3n(CC(=O)Nc3cccc(OC)c3)c2=O)cc1	-0.46
C=CCc1ccccc1Oc1cc(F)nc(N)n1	-0.41
CC(=O)N1CC(C)OC1c1ccccc1 (centres undefined)	1.2

Additional structures.
Compound	Measles inh
COc1ccccc1C(=O)NC(NCCOC12CC3CC(CC(C3)C1)C2)(C(F)(F)F)C(F)(F)F	-0.68
CC1(C)CC(=O)C2=C(C1)c1c(ccc3ccccc13)NC2c1ccc(Br)cc1 (centres undefined)	0.34
CN(C)CCCN1C(=O)C(=O)/C(=C(/O)c2ccccc2)C1c1ccco1 (centres undefined)	-0.14
O=C(O)CN1C(=O)COc2ccc(Cl)cc21	-0.25
COc1cccc(C2C(=O)N(C3CCC(C)CC3)CC(=O)N2Cc2ccccc2Cl)c1OC (centres undefined)	-0.94
CCOc1ccc2nc(Nc3ncc4c(n3)CC(C)(C)CC4=O)nc(C)c2c1	1.8
Cn1c2ccccc2c2nnc(SCC(=O)Nc3ccccc3F)nc21	-0.25
C=CCOC(=O)C1=C(C)Nc2nnnn2C1c1ccccc1OCC (centres undefined)	-0.3
CC(C)OC(=O)COc1ccc2c3c(c(=O)oc2c1)CCC3	-0.15
Cc1cc(C(F)(F)F)c2c(N)c(C(=O)c3ccc(Cl)s3)sc2n1	5.1

(cont.)
Compound	Measles inh
Cc1c(N2C(=O)c3ccccc3C2=O)c(=O)n(-c2ccccc2)n1C	-0.89
Cc1cc(C2(c3ccc(O)c(C)c3)CCC(C)CC2)ccc1O	-0.89
N#Cc1ccc(-c2ccccc2)nc1SCC(=O)c1ccccc1	-0.61
CC(=O)OCCCNc1cc(Sc2cc(C(C)(C)C)ccc2C)c2nonc2c1[N+](=O)[O-]	-0.95
Fc1ccccc1CSc1nnc(-c2ccco2)n1-c1ccccc1	-0.25
CCc1cc(=O)oc2cc3oc(C)c(-c4ccccc4)c3cc12	-0.23
COC(=O)C1=CN(Cc2ccc(Cl)cc2)C=C(C(=O)OC)C1c1cccc(OC)c1OC	0.01
C#CCSc1nnc(-c2c[nH]c3ccccc23)n1C	0.59

Screening data deposited in PubChem by Emory University Molecular Libraries Screening Center.
